FGF22 binding = shifts melting point of recombinant human FGF22 | Q9HCT0 | recombinant FGF22 thermal shift, SYPRO orange fluorescence; percent of sucrose octasulfate shift, DMSO zero | calls only at 9.99 µM | actives 1.5% (n = 340,000);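 active means melting point raised past a set limit in the mean and every replicate; three in four hits are not shown here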
Target sequence (Q9HCT0 whole entry, looked up): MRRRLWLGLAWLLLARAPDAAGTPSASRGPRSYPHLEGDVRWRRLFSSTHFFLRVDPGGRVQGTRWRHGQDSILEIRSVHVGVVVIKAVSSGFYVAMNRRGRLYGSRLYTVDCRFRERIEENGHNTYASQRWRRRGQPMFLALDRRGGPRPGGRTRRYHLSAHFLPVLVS
AF4-AF9 inh = blocks AF4 peptide binding to human AF9; AID 651704; AlphaScreen, biotin-AF4 peptide binding to FLAG-AF9; actives 0.47% (n = 350,000); inhibition, % at 10 µM;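 active means every replicate reaching a set inhibition limit, whatever the replicate mean, cut at about 25% in these data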;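 further: 0% = plate neutral control median and 100% = total signal loss; the record names both 10 and 1 µM as test concentration; the first replicate is given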
Target sequence (P42568 whole entry, looked up): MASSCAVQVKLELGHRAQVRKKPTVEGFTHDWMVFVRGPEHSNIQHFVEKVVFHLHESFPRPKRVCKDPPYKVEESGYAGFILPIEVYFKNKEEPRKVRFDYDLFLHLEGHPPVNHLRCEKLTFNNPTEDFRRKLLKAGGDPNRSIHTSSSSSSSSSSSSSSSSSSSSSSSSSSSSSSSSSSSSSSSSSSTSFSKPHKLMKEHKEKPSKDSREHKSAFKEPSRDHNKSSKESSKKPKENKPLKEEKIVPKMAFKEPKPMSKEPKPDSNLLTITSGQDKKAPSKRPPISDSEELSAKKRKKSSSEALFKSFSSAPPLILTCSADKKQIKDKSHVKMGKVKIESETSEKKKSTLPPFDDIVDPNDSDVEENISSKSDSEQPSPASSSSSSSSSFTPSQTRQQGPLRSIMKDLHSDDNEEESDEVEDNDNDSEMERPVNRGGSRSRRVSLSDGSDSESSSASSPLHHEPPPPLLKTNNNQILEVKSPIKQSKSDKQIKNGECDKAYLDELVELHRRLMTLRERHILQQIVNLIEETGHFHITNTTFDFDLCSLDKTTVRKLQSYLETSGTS
The depositor's hits bear a star; i = inactive; & = joins results of further samples.

# | molecule | FGF22 binding | AF4-AF9 inh
1 | CO[C@H]1CN(C)C(=O)c2ccc(NC(C)=O)cc2OC[C@H](C)N(C(=O)c2cnccn2)C[C@@H]1C | i | -1.5
2 | CNC[C@@H]1Oc2ccc(NC(=O)Nc3ccc(OC)cc3)cc2C(=O)N([C@H](C)CO)C[C@H]1C | i | -0.4
3 | Cn1cnc(S(=O)(=O)N2CCCCN3[C@H](C2)[C@@H](c2ccc(-c4ccccc4)cc2)[C@@H]3CO)c1 | i | -0.8
4 | COc1ccc(S(=O)(=O)Nc2ccc3c(c2)C(=O)N([C@H](C)CO)C[C@@H](C)[C@H](CN(C)S(=O)(=O)c2c(C)noc2C)OCCCC[C@H](C)O3)cc1 | i | 4.9
5 | COc1ccc(CN(C)C[C@@H]2Oc3ccc(NC(=O)C4CCCCC4)cc3CC(=O)N([C@H](C)CO)C[C@@H]2C)cc1 | i | -1.4
6 | COc1ccc(S(=O)(=O)N(C)C[C@H]2Oc3c(NS(=O)(=O)c4cn(C)cn4)cccc3C(=O)N([C@@H](C)CO)C[C@H]2C)cc1 | i | 2.0
7 | CC(C)NC(=O)N[C@H]1C=C[C@H](CC(=O)NCCCN(C)C)O[C@@H]1CO | i | -1.0
8 | C[C@@H]1CN([C@H](C)CO)C(=O)c2cccc(NS(=O)(=O)c3ccccc3)c2O[C@@H]1CN(C)C | i | -1.2
9 | C[C@@H]1CN([C@@H](C)CO)C(=O)c2cc(NC(=O)Nc3ccccc3)ccc2O[C@@H]1CN(C)C(=O)NC1CCCCC1 | i | -1.0
10 | COC(=O)c1cc2c(c3c4cc(OC)ccc4n(S(=O)(=O)c4cccc(C)c4)c13)C(=O)N(Cc1ccccc1OC)C2 | i | 0.1
11 | O=C(c1ccccn1)N1CC[C@@H]2[C@H]1c1cc(C#Cc3ccccc3)ccc1N[C@@H]2CO | i | 2.9
12 | CC=Cc1ccc2n(c1=O)C[C@H]1[C@H](CO)[C@@H](C(=O)NCC3CC3)[C@@H]2N1C(=O)c1ccccc1 (mixture of isomers) | i | 0.5
13 | Cc1ccc(S(=O)(=O)N(C)C[C@@H]2Oc3ccc(NS(=O)(=O)c4ccccc4)cc3C(=O)N([C@H](C)CO)C[C@H]2C)cc1 | i | 1.0
14 | Cc1noc(C)c1NC(=O)N(C)C[C@H]1Oc2ccc(NS(=O)(=O)c3ccc(Cl)cc3)cc2CC(=O)N([C@H](C)CO)C[C@@H]1C | i | -1.9
15 | Cc1cc(C(=O)Nc2ccc3c(c2)C(=O)N(C)[C@@H]2CC[C@@H](CC(=O)NCc4ccc(-c5ccccc5)cc4)O[C@H]2CO3)no1 | i | 1.3
16 | Cc1noc(C)c1NC(=O)Nc1ccc2c(c1)C(=O)N([C@@H](C)CO)C[C@@H](C)[C@H](CN(C)C(=O)Nc1ccc(F)cc1)OCCCC[C@H](C)O2 | i | -3.6
17 | CNC(=O)C[C@H]1CC[C@H]2[C@@H](COc3ccc(NC(=O)Nc4ccc(C)cc4)cc3C(=O)N2C)O1 | i | 0.4
18 | C[C@@H]1CN([C@@H](C)CO)C(=O)c2cccc(NC(=O)Nc3ccc(C(F)(F)F)cc3)c2O[C@H]1CN(C)S(=O)(=O)c1cccs1 | i | 2.9
19 | O=C(Nc1ccc(F)cc1)N1C[C@@H]2[C@H](c3ccccc31)[C@@H](CO)N2Cc1ccccc1Cl | i | 3.1
20 | CCCNC(=O)Nc1ccc2c(c1)OC[C@H](C)N(Cc1ccc(-c3ccccn3)cc1)C[C@@H](C)[C@H](OC)CN(C)C2=O | i | 1.1
21 | CC(C)NC(=O)N[C@H]1CC[C@H](CCNS(=O)(=O)c2ccc(Cl)cc2)O[C@H]1CO | i | -0.6
22 | COc1cccc(NC(=O)N2[C@H](CO)[C@H](c3ccccc3)[C@@H]2CNC(C)C)c1 | i | 1.3
23 | CC(=O)Nc1ccc2c(c1)C(=O)N(C)[C@H]1CC[C@@H](CC(=O)NCc3ccc(F)cc3)O[C@@H]1CO2 | i | -0.7
24 | C[C@H]1CN([C@@H](C)CO)C(=O)Cc2cc(NC(=O)Nc3ccc(C(F)(F)F)cc3)ccc2O[C@H]1CN(C)C | i | 1.8
25 | N#C[C@@H]1[C@@H](c2ccccc2)[C@H](CO)N1S(=O)(=O)Cc1ccccc1 | i | -2.1
26 | COc1cccc(NC(=O)N(C)C[C@@H]2Oc3ncc(C#Cc4ccc(F)cc4)cc3C(=O)N([C@H](C)CO)C[C@@H]2C)c1 | i | -0.6
27 | CCCC(=O)Nc1ccc2c(c1)OC[C@@H](C)N(CC1CCOCC1)C[C@@H](C)[C@H](OC)CN(C)C2=O | i | -1.6
28 | O=S1(=O)N[C@@H](Cc2ccccc2)COc2cccc(NCCO)c21 | i | -1.1
29 | C[C@H](CO)N1C[C@H](C)[C@@H](CN(C)C(=O)C2CCCCC2)Oc2cc(-c3cccnc3)ccc2S1(=O)=O | i | 1.3
30 | C[C@@H]1CN([C@H](C)CO)C(=O)c2cc(-c3ccc(C(=O)N(C)C)cc3)cnc2O[C@H]1CN(C)C | i | -3.3
31 | Cc1cccc(S(=O)(=O)N2CCCCN3[C@H](CO)[C@H](c4ccc(C#C[C@@H](C)O)cc4)[C@@H]3C2)c1 | i | -2.5
32 | O=C(C[C@@H]1C[C@H]2c3cc(NC(=O)Nc4ccccc4)ccc3O[C@H]2[C@H](CO)O1)NCC1CC1 | i | -0.7
33 | CN(C)CC(=O)Nc1ccc2c(c1)[C@@H]1C[C@H](CC(=O)NCc3ccccc3)O[C@@H](CO)[C@@H]1O2 | i | -0.2
34 | C[C@@H]1CN([C@@H](C)CO)C(=O)Cc2cc(NC(=O)Cc3cn(C)c4ccccc34)ccc2O[C@@H]1CN(C)C(=O)Nc1ccccc1 | i | 3.7
35 | C[C@@H]1CN([C@@H](C)CO)C(=O)Cc2cc(NS(=O)(=O)c3ccc(Cl)cc3)ccc2O[C@@H]1CN(C)C(=O)Nc1ccc(F)cc1 | i | 1.0
36 | C[C@H]1CN([C@@H](C)CO)C(=O)CCCn2cc(nn2)CO[C@@H]1CN(C)S(=O)(=O)c1cn(C)cn1 | i | -0.9&0.6
37 | COc1ccc(NC(=O)N(C)C[C@H]2Oc3ccc(NC(=O)Nc4ccc(F)cc4)cc3CC(=O)N([C@H](C)CO)C[C@@H]2C)cc1 | i | 0.4
38 | CO[C@H]1CN(C)C(=O)c2ccc(NC(C)=O)cc2OC[C@@H](C)N(Cc2cc(F)ccc2F)C[C@H]1C | i | 2.8
39 | Cc1cccc(S(=O)(=O)N2CC[C@@H]3[C@H]2c2cc(-c4cccc(C#N)c4)ccc2N(C)[C@H]3CO)c1 | i | -6.6
40 | C[C@H](CO)N1C[C@H](C)[C@@H](CN(C)CC2CCCCC2)Oc2ccc(NC(=O)Nc3ccccc3)cc2CC1=O | i | 6.0
41 | CCCN(C)C[C@@H]1Oc2cc(C#CC3CCCC3)ccc2S(=O)(=O)N([C@H](C)CO)C[C@@H]1C | i | 4.3
42 | Cc1cccc(S(=O)(=O)N2CCCCN3[C@H](CO)[C@@H](c4ccc(-c5ccccc5)cc4)[C@@H]3C2)c1 | i | -6.1
43 | CC=Cc1ccc2n(c1=O)C[C@H]1[C@H](CO)[C@@H](C(=O)Nc3ccccc3)N(CC3CC3)[C@@H]21 (mixture of isomers) | i | 2.6
44 | O=C(C[C@H]1CC[C@@H]2[C@H](COC[C@@H](O)CN2C(=O)Nc2ccc3c(c2)OCO3)O1)N1CCN(c2ccccc2)CC1 | i | 6.9
45 | O=C(C[C@@H]1C[C@H]2c3cc(NC(=O)NC4CCCC4)ccc3O[C@H]2[C@H](CO)O1)NCc1ccc(Oc2ccccc2)cc1 | i | -0.5
46 | O=C(C[C@H]1CC[C@@H]2[C@H](COC[C@@H](O)CN2C(=O)c2cnccn2)O1)NCc1ccc(Cl)cc1 | i | -3.7
47 | COc1ccc([Si](C)(C)[C@H]2[C@H](CCO)O[C@@]3(C(=O)N(Cc4ccccc4)c4ccc(N5CCC5=O)cc43)[C@@H]2C)cc1 | i | 1.2
48 | O=C(NCc1ccccc1)[C@H]1[C@H](CO)[C@H]2Cn3c(cccc3=O)[C@@H]1N2C(=O)CC1CC1 | i | -0.1
49 | COc1ccc2c3c(n(C)c2c1)[C@H](CO)NCC31CCN(Cc2ccncc2)CC1 | i | 16.4
50 | CO[C@H]1CN(C)C(=O)c2ccc(NS(=O)(=O)c3ccc(Cl)cc3)cc2OC[C@@H](C)NC[C@H]1C | i | -11.5
51 | C[C@H](CO)N1C[C@H](C)[C@@H](CN(C)C(=O)Nc2ccc3c(c2)OCO3)Oc2ccc(NC(=O)Cn3cnnn3)cc2CC1=O | i | -0.4
52 | CC(C)CC#Cc1ccc2c(c1)O[C@@H](CN(C)C(=O)c1cccnc1)[C@@H](C)CN([C@@H](C)CO)S2(=O)=O | i | 7.5
53 | C[C@@H]1CCCCO[C@H](CN(C)C(=O)CCCN(C)C)[C@@H](C)CN([C@@H](C)CO)C(=O)c2cc(NC(=O)Nc3cccc4ccccc34)ccc2O1 | i | 17.9
54 | C[C@@H]1CN([C@@H](C)CO)C(=O)c2cccc(NC(=O)c3ccncc3)c2O[C@@H]1CN(C)S(=O)(=O)c1ccccc1 | i | -2.8
55 | O=C(C[C@H]1CC[C@@H](NC(=O)c2ccccc2)[C@H](CO)O1)NCCc1ccncc1 | i | -1.4
56 | Cc1ccc(S(=O)(=O)N(C)C[C@@H]2OCCCC[C@@H](C)Oc3ccc(NS(=O)(=O)c4ccccc4)cc3C(=O)N([C@@H](C)CO)C[C@@H]2C)cc1 | i | 1.8
57 | C/C=C/c1ccc2c(c1)O[C@H](CN(C)C(=O)c1ccncc1)[C@H](C)CN([C@@H](C)CO)S2(=O)=O | i | -0.5
58 | C[C@@H]1CN([C@@H](C)CO)C(=O)c2cc(-c3cccnc3)cnc2O[C@H]1CN(C)C(=O)C1CCC1 | i | -4.2
59 | COc1ccc(C#Cc2ccc([C@H]3[C@@H](CO)N4CCCCN(S(=O)(=O)c5ccccc5)C[C@H]34)cc2)cc1 | i | 1.7
60 | COc1ccc(NC(=O)Nc2cccc3c2O[C@@H](CN(C)C(=O)Nc2ccc4c(c2)OCO4)[C@@H](C)CN([C@H](C)CO)C3=O)cc1 | i | 3.2

Retrieved one by one from the entries so far, six records:
# | molecule | FGF22 binding | AF4-AF9 inh
51 | C[C@H](CO)N1C[C@H](C)[C@@H](CN(C)C(=O)Nc2ccc3c(c2)OCO3)Oc2ccc(NC(=O)Cn3cnnn3)cc2CC1=O | i | -0.4
19 | O=C(Nc1ccc(F)cc1)N1C[C@@H]2[C@H](c3ccccc31)[C@@H](CO)N2Cc1ccccc1Cl | i | 3.1
24 | C[C@H]1CN([C@@H](C)CO)C(=O)Cc2cc(NC(=O)Nc3ccc(C(F)(F)F)cc3)ccc2O[C@H]1CN(C)C | i | 1.8
39 | Cc1cccc(S(=O)(=O)N2CC[C@@H]3[C@H]2c2cc(-c4cccc(C#N)c4)ccc2N(C)[C@H]3CO)c1 | i | -6.6
45 | O=C(C[C@@H]1C[C@H]2c3cc(NC(=O)NC4CCCC4)ccc3O[C@H]2[C@H](CO)O1)NCc1ccc(Oc2ccccc2)cc1 | i | -0.5
21 | CC(C)NC(=O)N[C@H]1CC[C@H](CCNS(=O)(=O)c2ccc(Cl)cc2)O[C@H]1CO | i | -0.6

Next records:
# | molecule | FGF22 binding | AF4-AF9 inh
61 | CN1C(=O)c2cc(NC(=O)c3ccc(F)cc3)ccc2OC[C@H]2O[C@H](CC(=O)NCC3CCCCC3)CC[C@H]21 | i | -3.4
62 | CC(C)NC(=O)Nc1ccc2c(c1)C(=O)N([C@H](C)CO)C[C@H](C)[C@@H](CN(C)C(=O)Nc1ccc(C(F)(F)F)cc1)OCCCC[C@H](C)O2 | i | -0.8
63 | COc1cccc(CNC(=O)[C@H]2CCCN2C(=O)[C@H]2CCCN2C(=O)c2cccc(OC)c2)c1 | i | 0.5
64 | C[C@H]1CN([C@@H](C)CO)S(=O)(=O)c2ccc(C#Cc3ccccn3)cc2O[C@H]1CN(C)C(=O)C1CC1 | i | -2.5
65 | C[C@@H]1CN([C@H](C)CO)S(=O)(=O)c2ccc(C3=CCCCC3)cc2O[C@H]1CN(C)Cc1cccnc1 | i | 13.7
66 | O=C(NC1CCCC1)[C@H]1[C@H](CO)[C@H]2Cn3c(cccc3=O)[C@H]2N1C(=O)NC1CCCC1 | i | -3.4
67 | CN1C(=O)c2cc(NS(=O)(=O)c3ccc(Cl)cc3)ccc2OC[C@H]2O[C@H](CC(=O)O)CC[C@@H]21 | i | -1.8
68 | COc1ccc(CN(C)C[C@@H]2Oc3ccc(NC(=O)CCN4CCOCC4)cc3C(=O)N([C@@H](C)CO)C[C@@H]2C)cc1 | i | -1.4
69 | COc1ccc(S(=O)(=O)Nc2ccc3c(c2)C(=O)N([C@@H](C)CO)C[C@@H](C)[C@H](CN(C)C(=O)NC2CCCCC2)OCCCC[C@@H](C)O3)cc1 | i | -1.2
70 | O=C(CN1CCOCC1)N1CC2(C1)[C@@H](c1ccccc1)[C@@H](CO)N2Cc1ccc(F)cc1 | i | 0.4
71 | CCC(=O)N(C)C[C@@H]1Oc2ncc(-c3ccc(C#N)cc3)cc2C(=O)N([C@H](C)CO)C[C@@H]1C | i | -1.7
72 | CC(C)NC(=O)N(C)C[C@@H]1Oc2ncc(C#CCN(C)C)cc2C(=O)N([C@H](C)CO)C[C@@H]1C | i | -2.4
73 | O=C(C[C@H]1CC[C@H]2[C@@H](COC[C@@H](O)CN2S(=O)(=O)c2ccc(F)cc2)O1)NCC1CCCCC1 | i | 8.8
74 | C[C@@H]1CCCCO[C@H](CN(C)C(=O)Nc2ccccc2)[C@@H](C)CN([C@H](C)CO)C(=O)c2cc(NS(=O)(=O)c3ccccc3)ccc2O1 | i | -0.4

Not all compounds are listed (hit frequency here may not be typical).
